Assay outcomes (PubChem)
Prx2 Sm inh = inhibitors of Schistosoma mansoni peroxiredoxin 2 | S. mansoni Prx2 activity coupled to TGR/GSH (TGR is thioredoxin glutathione reductase), NADPH fluorescence loss, qHTS; some inactives read as strong as hits | Potency, µM | actives 0.07% (n = 65,000) | AID 448; active means full or partial inhibition curve with a strong effect at the top dose; inconclusive means weaker partial or single-point curve; inactive means no accepted curve; further: series up to 57 µM; many of its hits are not listed in these tables
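Prx2 inhibition was measured as reduced NADPH consumption when electrons flowed from NADPH through TGR and glutathione to Prx2 and H2O2. Plates were read kinetically over 8 min; enzyme reagents were held at 4 deg C during dispensing.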
Anthrax LT inh = inhibitors of anthrax lethal toxin internalization; Cells, anthrax lethal toxin internalization, FRET ratio (460/530); Potency, µM (series often up to 40 µM), inactives show at the top dose activity change, negative = inhibition, usual class: inhibitors; actives 0.67% (n = 70,000); AID 912; active = well fitted falling ratio curve with the 530 nm signal flat; inconclusive = other ratio curves, or a change in one channel alone; inactive = flat curves in the ratio and both channels; the % refers to the ratio; further: on the % scale 0 is the no-effect control and ±100 the full control effect; nearly all actives have a fitted effect of over 50% in size; tested in ME-180 cells; beta-lactamase reporter
An asterisk follows results filed as active; ? = inconclusive; . = not tested or not shown; [ ] = another dose, or the depositor's remark. Potency means the concentration at half of the fitted maximal effect. These rows are one share of the data; rates above refer to the full screens.

SMILES	Prx2 Sm inh	Anthrax LT inh
COc1cccc(Nc2ncc3nc(C)c(=O)n(C)c3n2)c1	>57	17%
CCC(C(=O)N1CC2(C)CC1CC(C)(C)C2)N1C(=O)c2ccccc2C1=O (centres undefined)	.	7%
NC(=O)c1ccsc1NC(=O)COC(=O)c1ccccc1NCc1ccco1	>57	?
CC(C)(C)n1ncc2c(=O)n(CC(=O)N3CCN(c4ccccc4)CC3)cnc21	>57	2%
CCn1c(SCC(=O)Nc2cccc(F)c2)nnc1-c1cc2cc(Br)ccc2o1	>57	-24%
COC(=O)c1cccc(NS(=O)(=O)c2cccs2)c1C	>57	8%
Cc1cc(C(=O)N2CCN(c3ncccn3)CC2)c(C)o1	>57	8%
Cc1cnc(NC(=O)c2c(O)c3cccc4c3n(c2=O)CCC4)s1	>57	0%
CC(C)NS(=O)(=O)c1ccc2c(c1)oc(=O)n2C	>57	4%
Cc1ccc(NC(=O)N2CCCN(Cc3ccc(F)cc3)C2)cc1C	>57	-4%
COc1ccccc1C(=O)Nc1c2c(nn1-c1cccc(C)c1C)CS(=O)(=O)C2	>57	?
O=C(CCc1nc2ccccc2[nH]c1=O)OCc1ccc(S(=O)(=O)N2CCOCC2)cc1	>57	-3%
CCn1c(NCc2cccc(OC)c2OC)nc2ccccc21	>57	11%
COc1cc(C)c(Cl)cc1S(=O)(=O)NCc1ccco1	>57	.
O=C(Nc1ccccc1)OC1C2CCC1C(N1CCCCC1)CC2 (centres undefined)	>57	-12%
CC1CN(C(=O)Nc2ccc3snnc3c2)c2ccccc21 (centres undefined)	>57	?
COCCOC(=O)C1=C(N)Oc2c(c(=O)oc3ccccc23)C1c1ccncc1 (centres undefined)	>57	11%
COc1ccccc1CNS(=O)(=O)c1ccc2c(c1)oc(=O)n2C	>57	-2%
CCCNC(=O)NC(=O)COC(=O)c1ccc(OC)c(S(=O)(=O)N2CCCc3ccccc32)c1	>57	-13%
CCc1nc(C)cn1S(=O)(=O)c1cc(OC)c(C)cc1C	>57	8%
C=CCNc1nc(N)c(C(=O)c2ccc3c(c2)OCO3)s1	>57	.
Cc1cccc2cc(C#N)c(NCCCn3ccnc3)nc12	>57	?
CCOC(=O)c1ccc(NC(=O)CC2OCCN(CC)C2=O)cc1 (centres undefined)	>57	-11%
CSc1nc(SCC(N)=O)c2c3c(sc2n1)CN(C)CC3	>57	-13%
CCOCCCNc1ncnc2c1[nH]c1ccccc12	>57	25%
OCc1ccc(-c2nn(Cc3ccccc3)c3ccccc23)o1	>57	16%
NC(=O)COC(=O)C(Cc1ccccc1)NS(=O)(=O)c1ccccc1F (centres undefined)	>57	?
CCn1c(=O)c2ccccc2n2c(SCC(=O)N3CCCc4ccccc43)nnc12	>57	-10%
O=C1CCc2cc(S(=O)(=O)N3CCC(C(=O)NCc4ccccn4)CC3)ccc2N1	>57	9%
O=C(NCc1cccnc1)c1cn(CCc2ccccc2)nn1	>57	-2%
Cn1c(SCC(=O)NCc2ccc3c(c2)OCO3)nnc1-c1c[nH]c2ccccc12	>57	3%
Cc1cc(C)c(C#N)c(SCc2ccccc2C(=O)O)n1	>57	1%
O=C(CN1C(=O)COc2ccc(Cl)cc21)N1CCc2ccccc21	>57	1%
Clc1ccc(SCCn2ccnc2)cc1	.	-3%
Cc1c(-c2ccccc2)nc2ccccc2c1C(=O)O	>57	-14%
CCOC(=O)C(CC)Sc1nc2c(c(=O)[nH]c(=O)n2C)n1C/C=C(/C)Cl (centres undefined)	>57	.
Cn1c(SCCSc2nnc(-c3ccccc3)n2C)nnc1-c1ccccc1	.	0%
CN(C)c1ccc(-c2nccc(NCCN3CCOCC3)n2)cc1	>57	12%
CCOC(=O)c1[nH]c(C)c(C(=O)N2CCN(c3ccccc3)CC2)c1C	>57	3%
CCOC(=O)c1[nH]c(C)c(C(=O)N2CCN(c3ccc(F)cc3)CC2)c1C	>57	-1%
CN1C[C@H](CO)C=C2c3cccc4[nH]cc(c34)C[C@H]21	>57	?
CC(=O)c1cccc(NC(=O)c2ccc(Br)o2)c1	.	-12%
O=S(=O)(c1ccccc1)c1nc(-c2cccs2)oc1NCC1CCCO1 (centres undefined)	>57	.
Cc1cc(Nc2ccccc2)n(CCC#N)n1	>57	-13%
Cc1ccc(C2C=C(c3ccccc3OC(F)F)Nc3ncnn32)cc1 (centres undefined)	>57	-15%
Cc1nnc(SCC(=O)N2c3ccccc3Sc3ccccc32)n1N	>57	-8%
O=C(NC1CCCCC1)Sc1ccc(Cl)cc1	>57	-12%
CC(=O)c1cccc(NS(=O)(=O)N(C)C)c1	>57	2%
O=C(CCn1nc(-c2ccc(Cl)cc2)ccc1=O)NCc1ccccn1	>57	6%
CN(C)c1ccc(NC(=O)CN2CCN(S(=O)(=O)c3cc(Cl)ccc3Cl)CC2)cc1	>57	?
Next part:
SMILES	Prx2 Sm inh	Anthrax LT inh
Cc1ccc(C2CC(=O)c3cnc(N4CCN(c5ccccc5)CC4)nc3C2)cc1 (centres undefined)	>57	-9%
COc1ccc(OC)c(N(CC(=O)Nc2cccnc2)S(=O)(=O)c2ccc(OC)c(OC)c2)c1	>57	1%
O=C(NCCCN1CCOCC1)c1cc2c(=O)[nH]c3ccccc3c2s1	>57	-1%
COc1ccc(CN(Cc2cc3cccc(C)c3[nH]c2=O)C(=O)N(C)C)cc1	>57	1%
CCOC(=O)c1cc(C(=O)OCC)cc(-n2c(C)cc(C(=O)CN3CCOCC3)c2C)c1	>57	4%
O=C(c1ccc(S(=O)(=O)N2CCCCC2)cc1)N1CCCc2ccccc21	>57	-6%
O=C(c1noc2c1CCCC2)N1CCN(Cc2ccccc2)CC1	>57	-15%
Cc1ccc(/C=C/S(=O)(=O)N2CCC(C(=O)O)CC2)cc1	>57	-18%
COc1ccc(NC(=O)N2CC[C@@]3(CCCN(C(=O)c4csnn4)C3)C2)cc1	>57	-5%
Nc1nnc(SCC(=O)N2CCc3ccccc32)n1-c1ccccc1	>57	5%
Cc1ccn2cc(C(=O)Nc3nnc(C)s3)nc2c1	>57	3%
Cc1nc(CNS(=O)(=O)c2cc(C)c(C)cc2C)cs1	>57	-11%
CCOC(=O)N1CCN(c2c(NCC3CCCO3)c(=O)c2=O)CC1 (centres undefined)	>57	-6%
Cc1cc(C(=O)OCC(=O)c2ccc(Br)s2)c(C)o1	>57	-5%
C=CCOC(=O)c1[nH]c2c(c1C)C(=O)CC(c1cc(OC)c(OC)c(OC)c1)C2 (centres undefined)	>57	6%
Cc1ccc(C)c(N2CCN(C(=O)C3CCN(S(=O)(=O)c4cccc5nsnc45)CC3)CC2)c1	>57	?
COC(=O)[C@H](CCSC)NC(=O)Nc1ccc(C(C)=O)cc1	>57	.
Cc1cccc(N2CCN(C(=O)c3ccc(N4CCCC4=O)cc3)CC2)c1C	>57	-4%
Cc1cc(C(F)F)n2nc(C(=O)Nc3c(F)cc(F)cc3Br)nc2n1	>57	0%
O=C(CSc1nnc2n(C3CCCCC3)c(=O)c3ccccc3n12)OC1CCCCC1	>57	-14%
C=C(C)C(O)C(CC/C=C(\C)C(=O)OCC)OC (centres undefined)	.	-8%[8 µM]
Nn1c(SCc2csc(-c3ccccc3)n2)nnc1-c1cccs1	>57	-15%
Cc1cc(C)n(C(=O)CCC(=O)NCc2ccccc2)n1	>57	-7%
COC[C@H]1OC(=O)c2coc3c2[C@@]1(C)C1=C(C3=O)[C@H]2CCC(=O)[C@@]2(C)C[C@H]1OC(C)=O	>57	?
Cc1oc(CC(C)C)c(CN2CCCC2)c1C(=O)O	>57	-15%
C=CCNc1oc(-c2cccc3ccccc23)nc1C#N	>57	?
COc1ccc(C2C3=C(CC(C)(C)CC3=O)Nc3n[nH]c(C)c32)cc1 (centres undefined)	>57	?
O=C1CN(C(=O)c2ccco2)C(c2ccc(F)cc2)c2cc(Cl)ccc2N1 (centres undefined)	>57	3%
CCCN1Cc2cccc(C(=O)NC3CCCC3)c2C1=O	>57	17%
CCOC(=O)Cn1c(N2CCCCCC2)nc2c1c(=O)[nH]c(=O)n2C	>57	6%
O=C(CN1C(=O)CCS(=O)(=O)c2ccccc21)NCc1ccc2c(c1)OCO2	>57	-2%
CC(=O)Nc1ccc(OCC(O)Cn2nc(C)c(C(C)=O)c2C)cc1 (centres undefined)	>57	-11%
C/C(=N\O)C(=O)NCC1CCNCC1	>57	-1%
CCCS(=O)(=O)N1CCCC(C(=O)NC2CCCCC2)C1 (centres undefined)	>57	7%
c1ccc(CNc2nc(-c3cccnc3)nc3ccccc23)cc1	>57	?
O=C(CN1C(=O)c2ccccc2C1=O)Nc1ccc2c(c1)OCO2	>57	3%
N#Cc1ccccc1Cn1c(=O)n(CCC(=O)NCc2ccco2)c(=O)c2ccccc21	>57	-9%
O=C(Cn1ccc2ccccc2c1=O)NCCC(=O)NC1CCN(Cc2ccccc2)CC1	>57	7%
C[N+](C)(N)CCC[N+](C)(C)N	>57	-6%[8 µM]
CO[C@H]1COC(=O)C/C=C\[C@@H](C)COC(=O)[C@@H](C)NC(=O)C/C=C\[C@@H]1C	.	1%[8 µM]
CCC1CCCN1Cn1cnc2c([nH]c3ccc(OC)cc32)c1=O (centres undefined)	>57	-5%
O=C(O)C1CCCN1C(=O)Nc1ccccc1 (centres undefined)	>57	-9%
CC1CCc2nc(NC(=O)CN3CCOCC3)sc2C1 (centres undefined)	>57	2%
Cc1c(NC(=O)c2cc(-c3ccco3)on2)c(=O)n(-c2ccccc2)n1C	>57	-24%
CCC(CC)COC(=O)C(C#N)c1nc2ccccc2nc1N1CCOCC1 (centres undefined)	>57	?
CCN(Cc1nc2ccccc2c(=O)[nH]1)Cc1nc2cc(OC)c(OC)cc2c(=O)[nH]1	>57	11%
CCN(C(=O)c1cc2cccc(OC)c2oc1=O)c1ccccc1	>57	-9%
Cc1ccccc1OCCCCc1c(C)n[nH]c1C	.	?
COc1cc2c(cc1OC)C(=O)N(C)CC2	>57	?
CCCc1nnc(SCC(=O)N2CCCC2)n1CC1CCCO1 (centres undefined)	>57	11%
Following part.
SMILES	Prx2 Sm inh	Anthrax LT inh
CN1CCN(c2nc(-c3ccncc3)nc3ccccc23)CC1	>57	.
OC(C#CCN1CCOCC1)c1cccs1 (centres undefined)	.	2%
N#[N+]c1ccc(Nc2ccccc2)cc1	>57	7%[8 µM]
N=C1C(c2nc(-c3ccc(F)cc3)cs2)=C(O)CN1CCCN1CCOCC1	>57	-11%
COc1cc(C(=O)Nc2cc(-c3ccccc3)[nH]n2)cc(OC)c1OC	.	?
CCOC(=O)Cn1nnnc1CN(Cc1ccc(OC)cc1)Cc1cc2cc(C)ccc2[nH]c1=O	>57	-25%
CCOc1cc(-c2nc(-c3cc(OC)c(OC)c(OC)c3)no2)cc(OCC)c1OCC	>57	-9%
CCCOc1cccc(C(=O)Nc2cc(NC(=O)c3ccco3)ccc2OC)c1	>57	?
COc1ccc(-c2noc(-c3cccc(Cl)c3)n2)cc1OC	>57	-8%
C=CCN=C1SCC(=O)N1S(=O)(=O)c1ccc(C)cc1	>57	-11%
CN1CCC(n2nccc2N)CC1	>57	0%
O=C(CSc1nnc(Cc2cc(=O)[nH]c(=O)[nH]2)n1-c1ccc(Cl)cc1)NC1CCCC1	>57	4%
Cc1ccc(-c2nn(-c3ccccc3)cc2C(=O)N2CCOCC2)cc1	.	-7%
COc1ccc(C2C(C(=O)c3ccc(C)o3)=C(O)C(=O)N2c2cc(C)on2)cc1OC (centres undefined)	>57	.
COc1ccc(CN(Cc2cc3cc(C)ccc3[nH]c2=O)C(=O)N(C)C)cc1	>57	4%

Compounds listed so far with a halogen:
SMILES	Prx2 Sm inh	Anthrax LT inh
CCn1c(SCC(=O)Nc2cccc(F)c2)nnc1-c1cc2cc(Br)ccc2o1	>57	-24%
Cc1ccc(NC(=O)N2CCCN(Cc3ccc(F)cc3)C2)cc1C	>57	-4%
COc1cc(C)c(Cl)cc1S(=O)(=O)NCc1ccco1	>57	.
NC(=O)COC(=O)C(Cc1ccccc1)NS(=O)(=O)c1ccccc1F (centres undefined)	>57	?
O=C(CN1C(=O)COc2ccc(Cl)cc21)N1CCc2ccccc21	>57	1%
Clc1ccc(SCCn2ccnc2)cc1	.	-3%
CCOC(=O)C(CC)Sc1nc2c(c(=O)[nH]c(=O)n2C)n1C/C=C(/C)Cl (centres undefined)	>57	.
CCOC(=O)c1[nH]c(C)c(C(=O)N2CCN(c3ccc(F)cc3)CC2)c1C	>57	-1%
CC(=O)c1cccc(NC(=O)c2ccc(Br)o2)c1	.	-12%
Cc1ccc(C2C=C(c3ccccc3OC(F)F)Nc3ncnn32)cc1 (centres undefined)	>57	-15%
O=C(NC1CCCCC1)Sc1ccc(Cl)cc1	>57	-12%
O=C(CCn1nc(-c2ccc(Cl)cc2)ccc1=O)NCc1ccccn1	>57	6%
CN(C)c1ccc(NC(=O)CN2CCN(S(=O)(=O)c3cc(Cl)ccc3Cl)CC2)cc1	>57	?
Cc1cc(C(=O)OCC(=O)c2ccc(Br)s2)c(C)o1	>57	-5%
Cc1cc(C(F)F)n2nc(C(=O)Nc3c(F)cc(F)cc3Br)nc2n1	>57	0%
O=C1CN(C(=O)c2ccco2)C(c2ccc(F)cc2)c2cc(Cl)ccc2N1 (centres undefined)	>57	3%
N=C1C(c2nc(-c3ccc(F)cc3)cs2)=C(O)CN1CCCN1CCOCC1	>57	-11%
COc1ccc(-c2noc(-c3cccc(Cl)c3)n2)cc1OC	>57	-8%
O=C(CSc1nnc(Cc2cc(=O)[nH]c(=O)[nH]2)n1-c1ccc(Cl)cc1)NC1CCCC1	>57	4%
